# TRPV1 potentiator: enhances activation of the human vanilloid receptor TRPV1; Q8NER1; TRPV1-expressing cells, Fluo-8 calcium influx, capsaicin EC20 potentiation; host cell line not named in the record; control for the full effect not named in the record; potentiation, % at 8.33 µM; 320,000 compounds, 0.02% hits; AID 540277; active means potentiation above 80%; inconclusive means 30% to 80%; inactive means below 30%; further: 0% is about no effect
# Target sequence (Q8NER1 whole entry, looked up): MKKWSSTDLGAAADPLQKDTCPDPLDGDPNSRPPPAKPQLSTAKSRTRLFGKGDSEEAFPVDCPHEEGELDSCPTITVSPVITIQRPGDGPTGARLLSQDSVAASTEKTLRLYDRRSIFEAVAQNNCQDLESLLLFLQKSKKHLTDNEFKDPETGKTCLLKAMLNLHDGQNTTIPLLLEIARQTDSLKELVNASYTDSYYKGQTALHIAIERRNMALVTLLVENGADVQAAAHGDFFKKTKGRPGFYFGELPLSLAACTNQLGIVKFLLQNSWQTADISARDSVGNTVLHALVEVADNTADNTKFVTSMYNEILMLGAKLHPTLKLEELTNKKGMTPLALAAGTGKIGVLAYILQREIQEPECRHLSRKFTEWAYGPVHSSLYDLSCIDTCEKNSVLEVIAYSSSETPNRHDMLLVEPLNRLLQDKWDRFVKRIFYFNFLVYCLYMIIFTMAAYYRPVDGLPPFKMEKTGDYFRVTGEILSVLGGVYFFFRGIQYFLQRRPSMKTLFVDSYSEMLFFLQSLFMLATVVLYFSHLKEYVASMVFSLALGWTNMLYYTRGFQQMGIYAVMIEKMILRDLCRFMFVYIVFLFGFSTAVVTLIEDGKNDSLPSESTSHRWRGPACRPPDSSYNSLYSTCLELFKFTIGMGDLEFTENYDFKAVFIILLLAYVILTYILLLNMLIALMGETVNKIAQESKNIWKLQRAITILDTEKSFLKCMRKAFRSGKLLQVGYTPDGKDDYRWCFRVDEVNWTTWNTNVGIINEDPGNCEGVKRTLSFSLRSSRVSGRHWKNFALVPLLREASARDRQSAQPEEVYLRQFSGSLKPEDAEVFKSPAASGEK
#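 Fluo-8 calcium influx in TRPV1-expressing cells, kinetic read (ex 480/em 520 nm). Compound added and read 3 min for agonist activity, followed by capsaicin at EC20 final and 2 min further read for enhancement.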
# PINK1 modulator: PINK1 expression modulation; PINK1 immunofluorescence, high-content cytometry, 24 h; Potency, µM (highest dose often 76.6 µM), for inactives: at the top dose activation (PINK1 increase), most hits filed as activators; 410,000 compounds, 0.2% hits; AID 624263; active = well fitted activation curve with a large enough effect; inconclusive = small, poorly fitted or top-dose-only effect; inactive = flat fitted curve, though single readings scatter; cell line not stated here;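 further: potency means the concentration at half of the fitted maximal effect; % of control where 0% means no effect; nearly all actives have a fitted effect of over 65% in size; a mitochondrial uncoupler was the plate control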
#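 PINK1 protein, normally rapidly degraded, was detected by immunofluorescence after 24 hour compound treatment of a stable cell line. Titration data (5 concentrations) came from laser-scanning cytometry, with CCCP-treated wells as controls.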
# Sfp inh: Sfp phosphopantetheinyl transferase inhibition | Q9F4F7 | Biochemical Sfp PPTase activity, qHTS | Potency, µM, for the others: max response, negative = inhibition, usual class: inhibitors | 310,000 compounds, 3.5% hits | AID 1490; active means well fitted inhibition curve with a large enough effect; inconclusive means small, poorly fitted or top-dose-only effect, or another doubt; inactive means no such curve, though single readings can be large or run the other way;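 further: the enzyme is Sfp with the accession as filed and its product quenches rhodamine fluorescence; potency means the concentration at half of the fitted maximal effect; 0% = enzyme reaction without inhibitor and -100% = no enzyme wells; top concentration of the series not given in the record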
#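 Sfp 15 nM + cpd, 15 min RT; start w/ rhodamine-CoA 5 uM, BHQ-2-YbbR 12.5 uM (final); 50 mM Hepes pH 7.6, 10 mM MgCl2, 0.01% NP-40, 0.01% BSA; read 525/598 nm at 0 and 30 min.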
# ClpP mod: qHTS Assay for Activators of ClpP; 340,000 compounds, 1.9% hits; Potency, µM (top dose mostly 57.5 µM), without a hit: at the highest dose activity change, negative = active; AID 651965, 2013; ATP-dependent Clp protease proteolytic subunit (Bacillus subtilis (strain 168)), P80244; purified B. subtilis ClpP, FRET peptide cleavage, 20 min; active = well fitted falling curve with a large enough effect; inconclusive = small, poorly fitted or top-dose-only effect; inactive = no such curve, though single readings can be large or run the other way; further: potency means the concentration at half of the fitted maximal effect; the source files actives as falling curves though it sought activators and does not explain the sign; nearly all actives have a fitted effect of over 65% in size; many hits overshoot -100%
# Target sequence (P80244 whole entry, looked up): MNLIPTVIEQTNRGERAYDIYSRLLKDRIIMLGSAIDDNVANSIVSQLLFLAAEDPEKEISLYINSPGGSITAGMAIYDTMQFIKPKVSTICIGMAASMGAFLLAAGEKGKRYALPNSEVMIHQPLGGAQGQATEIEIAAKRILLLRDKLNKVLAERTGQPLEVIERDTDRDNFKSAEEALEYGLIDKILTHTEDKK
#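 Purified B. subtilis ClpP, 10 microg/mL final in Tris/HCl pH8 with KCl, BSA, glycerol and Tween-20, cleaved an Abz/nitrotyrosine-quenched decapeptide. Fluorescence (ex 320, em 430) was read at 0 and 20 min at room temperature. Delta was normalized to 5.8 microM ADEP and DMSO/no-enzyme controls.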
# TRPML1 agonist: activates the human TRPML1 channel; Q9GZU1; TRPML1-expressing cells, Ca2+ dye fluorescence, FDSS; host cell line not named in the record; reference of the full effect not given here; activation, % (concentration not given with the values); 410,000 compounds, 0.12% hits; in the data active = activation above about 50%; inconclusive = about 30% to 50%; inactive = below about 30%; further: 0% is about no effect; the text of the record puts the active cut at 80%
#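 Agonist activity was taken from a 110 s kinetic Ca2+ dye read on the FDSS after pinning compounds onto TRPML1-DL cells. The cells were seeded at 1,500/well with Tet inducer, incubated about 16 h, then dye-loaded at room temperature.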
# TRPML1 blocker: human mucolipin-1 channel inhibition; TRPML1-inducible cells, Ca2+ dye fluorescence, FDSS; active compounds read low; inhibition of EC80 agonist-evoked calcium signal; Q9GZU1; activity change, negative = inhibition, % (no concentration beside the values); 390,000 compounds, 0.02% hits; in the data active means activity change below about -50%; inconclusive means about -30% to -50%; inactive means above about -30%;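 further: stimulus is agonist 54-4 at its EC80 concentration; on the % scale 0 is the no-effect control and ±100 the full control effect; compound concentration not given in the record; the text of the record puts the active cut at -80%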
#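 TRPML1-DL cells, Tet-induced overnight (~16 h, 37 °C) at 1,500 cells/well, were loaded with Ca8 no-wash dye plus quencher for 45-90 min at room temperature. Compounds were pinned during FDSS kinetic reading; agonist 54-4 at EC80 (4 uM final) then added.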
# Menin-MLL FL inh: menin-MLL binding inhibition, fluorescein peptide | Fluorescence polarization, fluorescein-MLL peptide displacement from menin | FP activity change, % at 61.4 µM | 290,000 tested, under 10 active; inconclusive = falling polarisation curve, or a change in total fluorescence; inactive = total fluorescence flat and polarisation flat or rising; no compound was filed as active; the % refers to the polarisation; negative = inhibition;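 further: % of control where 0% means no effect; inhibitors lower the polarisation; unlabelled MLL peptide was the positive control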
# The depositor's hits bear a star; ? = inconclusive; . = not tested or not shown; [ ] = remark or other dose. Outcome played no part in choosing rows; overall some 4.4% were active at least once.
SMILES,TRPV1 potentiator,PINK1 modulator,Sfp inh,ClpP mod,TRPML1 agonist,TRPML1 blocker,Menin-MLL FL inh
COc1ccccc1CNC(=O)CCC(=O)n1ncc2cc(C)ccc21,3.9,1.9%,8.4%,-1.8%,-0.5,33.0,6.5
COc1cc(-c2nc(S(=O)(=O)c3ccc(C)cc3)c(N(C)C)o2)cc(OC)c1OC,-1.6,2.9%,56.2µM*,-2.6%,-0.3,-0.1,1.5
NC(=O)C(OC(=O)CNC(=O)C1CCCCC1)c1ccccc1 (configuration not stated),.,0.9%,.,1.1%,-1.0,.,.
COc1ccc(NS(=O)(=O)c2ccc3c(c2)CCC(=O)N3)c(OC)c1,7.0,-2.8%[38.3 µM],4.0%,-1.4%,0.0,-16.2,1.1
C/C=C/C(=O)N1c2ccccc2C(C)=CC1(C)C,-1.3,0.4%,16.0%,.,0.4,6.4,-1.2
Nc1ccc(C(=O)OCCCc2nc3cc4ccccc4cc3[nH]2)cc1,-11.7,1.9%,-6.0%,-11.4%,0.0,-10.3,9.1
COc1ccc(S(=O)(=O)N(C)c2ccc(C(=O)N3CCOCC3)cc2)cc1OC,1.3,.,7.8%,-1.3%,0.3,-0.5,-0.6
NNC(=O)Cn1c(-c2nonc2N)nc2ccccc21,5.2,2.1%,6.1%,-1.6%,0.2,0.0,6.5
C=CCNc1nc(N2CCCC2)nc2ccccc12,23.8,0.3%,-1.6%,31.6µM*,2.9,33.0,-7.8
c1n[nH]c(NCc2ccc3c(c2)OCO3)n1,-4.1,.,12.8%,0.7%,0.0,-2.0,1.5
CCOC(=O)c1c(C)oc2ncnc(NCCCN3CCN(c4cc(C)ccc4C)CC3)c12,.,1.9%,.,-0.8%,0.4,15.5,.
Cc1nc2nc(Cc3ccccc3)[nH]n2c(=O)c1Cc1ccccc1,0.6,0.9%,10.8%,-1.9%,-0.3,-2.6,0.7
COc1ccc(CNC(=O)CCC(=O)N2CC3CCCN3c3ccccc32)cc1 (configuration not stated),.,-0.4%,.,-1.2%,0.2,-5.2,.
O=c1cc(N2CCN(c3ccc(F)cc3)CC2)[nH]c(=O)n1-c1ccc(Br)cc1,.,-1.2%,.,-0.2%,2.2,-5.6,.
CS(=O)(=O)c1ccc(-c2sc3ccccc3c2C(=O)NCCCN2CCOCC2)cc1,.,-0.7%,.,?,0.0,6.7,.
COc1ccc(NC(=O)C(=O)NNC(=O)c2ccc(Cl)cc2Cl)cc1,-0.4,-0.2%,15.0%,-1.0%,-0.2,-9.8,.
CC(C)=C1C(=O)NN(c2ccc(F)c(Cl)c2)C1=O,2.3,-5.0%[38.3 µM],16.9%,-3.4%,0.0,-10.2,17.7
CCn1c(=O)c(C(=O)NCc2ccccc2OC)c(O)c2ccccc21,15.2,1.9%,8.2%,-1.2%,-0.2,3.0,2.4
O=c1[nH]c(CN2CCOCC2)nc2cc(Cl)ccc12,4.5,-1.2%,7.2%,.,0.1,3.2,-7.0
Cc1ccc(CCNC(=O)c2ccc3c(Cl)c4c(nc3c2)CCCC4)cc1,.,0.3%,.,-0.7%,0.0,-14.0,.
CC(=O)NC(CC(=O)NCCCn1ccc2ccccc21)c1ccccc1 (configuration not stated),4.4,2.9%,8.9%,1.2%,-1.1,-3.1,5.5
CC(=O)N1CCc2c(sc3c2c(=O)n(-c2ccc(F)cc2)c(=O)n3Cc2ccc(C#N)cc2)C1,.,1.8%,.,0.1%,-0.4,-4.6,.
COc1ccc(-c2ccc([C@H]3[C@@H]4C=CCC[C@@]4(C)C(=O)N3Cc3ccccc3)c(F)c2)cc1OC,?,3.2%,20µM*,3.7%,0.6,62.9,1.2
O=C(O)c1c(-c2ccccc2)oc2ccc(OCc3ccc(Cl)c(Cl)c3)cc12,.,-0.4%,.,4.4%,-1.2,16.5,.
CC1(C(=O)Nc2ccc3c(c2)OCCO3)CCC(=O)N1C1CCN(Cc2ccccc2)CC1 (configuration not stated),.,0.0%,.,-2.4%,-0.3,.,.

# (further entries)
SMILES,TRPV1 potentiator,PINK1 modulator,Sfp inh,ClpP mod,TRPML1 agonist,TRPML1 blocker,Menin-MLL FL inh
Cc1ccc(C(=O)CN2C(=O)C(=O)N(Cc3ccccc3)C2=O)cc1,-16.2,-0.5%,20.5%,.,1.5,-0.4,-1.1
CC1=C(C(=O)N(C)C)CC(CC(=O)NC2CC2)C(=O)N1CCC1=CCCCC1 (configuration not stated),.,-0.5%,.,-4.0%,0.0,12.8,.
COc1cc(-n2c(C)nc3cc(C(=O)NCc4ccco4)ccc32)cc(OC)c1OC,-4.1,1.8%,7.0%,-0.8%,0.0,40.2,2.3
CCCCCCC1CC(CSc2ncn[nH]2)OC1=O (configuration not stated),-20.2,-1.8%,2.9%,-2.3%,-0.2,-1.2,1.3
Cc1nc(SCC(=O)N2CCOCC2)c2c(=O)n(C)c(=O)n(C)c2n1,5.4,0.5%,6.0%,.,0.4,-19.5,2.8
Cc1ccccc1NP(=O)(c1ccccc1)c1nc2ccccc2s1 (configuration not stated),-17.3,0.2%,-10.3%,.,0.5,11.2,0.5
Cc1cccc(N2C(=O)CC(Sc3ncn[nH]3)C2=O)c1 (configuration not stated),-12.0,5.4%,56.2µM*,.,-0.8,8.0,1.0
C=CCNC(=O)c1onc(CSc2nc3ccccc3[nH]2)c1C(=O)NCC=C,-10.6,0.9%,2.2%,1.3%,-0.8,3.9,1.0
CCOc1ccc(CN2C(=O)CCC2(C)C(=O)NCc2cccnc2)cc1 (configuration not stated),-3.0,-1.2%,20.6%,0.6%,-0.8,24.0,-1.7
O=C(O)c1cccc(S(=O)(=O)Nc2ccc(Oc3ccccc3)cc2)c1,.,-0.1%,.,2.3%,0.8,5.6,.
C=CCNc1ncnc2c1ncn2[C@H]1CN(CCN2CCOCC2)C[C@@H](CO)O1,.,0.2%,.,-0.8%,-0.3,.,.
CC(C)c1ccc(CNC(=O)CCc2ccccc2)cc1,2.5,1.0%,6.9%,3.3%,1.4,-7.6,-1.1
CCS(=O)(=O)c1ncc(Cl)c(C(=O)NCc2ccccc2)n1,.,5.7%,.,3.4%,0.4,-14.6,.
CCN1CCN(S(=O)(=O)c2ccc(C)c([N+](=O)[O-])c2)CC1,0.1,0.9%,-9.1%,-0.4%,0.1,-2.0,4.4
CCCCCN(C(=O)CCC(=O)OCCOc1cccc(C)c1)c1c(N)n(CCCC)c(=O)[nH]c1=O,1.6,0.1%,.,-1.7%,-0.2,-9.8,.
COC(=O)c1ccc2c(=O)n(CCCCCC(=O)NCCc3ccc(Cl)cc3)c(=O)[nH]c2c1,.,0.6%,.,-2.7%,-0.6,7.0,.
CCOC(=O)c1c(-c2ccc(C)o2)csc1NC(=O)CN1CCN(CC)CC1,-6.2,-7.1%[38.3 µM],-15.8%,0.5%,-0.6,-4.6,-2.5
COc1ccccc1C(=O)N1CCN=C1SC,15.5,-1.6%,14.4%,-2.6%,0.5,-10.6,-0.6
O=C(Nc1ccccc1)OCCc1ccccn1,.,-0.7%,.,-2.0%,-0.3,-7.4,.
CCCCN(C(=O)COC(=O)COc1c(C)cc(C)cc1C)c1c(N)n(CCC)c(=O)[nH]c1=O,24.6,0.8%,.,.,3.5,1.5,.
Cc1cccc(NC(=O)CCC2CCN(C(=O)C3CC=CCC3)CC2)c1 (configuration not stated),7.9,-1.5%,15.8%,-10.0%,-0.2,-1.3,.
CSc1nsc(SCC(=O)N2CCCc3ccccc32)n1,4.6,0.5%,15.8%,?,3.0,-3.2,0.7
CC1Cn2c(nnc2-c2cccc(Cl)c2)S1 (configuration not stated),0.1,0.7%,38.5%[activator],-0.2%,0.6,4.2,-0.2
COC(=O)c1c(C)noc1-c1cc(C)on1,-9.7,2.7%,8.7%,-2.5%,-0.5,-3.0,0.6
COc1cc(S(=O)(=O)N2CCN=C2c2ccccc2)ccc1Cl,3.4,-1.4%,14.0%,-1.8%,-0.7,14.9,.

# Additional structures:
SMILES,TRPV1 potentiator,PINK1 modulator,Sfp inh,ClpP mod,TRPML1 agonist,TRPML1 blocker,Menin-MLL FL inh
Cc1nn(CCC(=O)Nc2ccccc2Br)c(=O)c2nn(-c3ccccc3)c(C)c12,.,0.2%,.,-2.4%,-0.7,6.0,.
CCCOc1cccc(C(=O)NC(=S)Nc2ccccc2)c1,-3.3,3.4%,-9.9%,2.2%,3.1,3.0,4.1
CCCNC(=O)C1(CC2CC(c3ccccc3)=NO2)CCN(C(=O)OC(C)(C)C)CC1 (configuration not stated),.,0.9%,.,-0.9%,0.1,-0.5,.
Cn1c(=O)c2cc(NC(=O)NCCc3ccccc3)ccc2n1Cc1cccc(C(F)(F)F)c1,.,2.4%,.,4.0%,0.8,-7.9,.
CCOC(=O)C1=C(N)OC2=C(C(=O)CC(C)(C)C2)C1c1ccc(CC)s1 (configuration not stated),-4.5,1.5%,13.6%,.,-0.9,2.0,0.7
CCOc1ccccc1C(=O)Nc1cccc2cccnc12,15.7,-0.4%,-10.6%,.,1.1,25.2,4.1
COc1ccc(NC(=O)c2noc3c2CSc2ccccc2-3)cc1Cl,.,1.7%,.,-3.4%,0.3,-3.4,.
CC(=O)O[C@H]1CC(C)(C)C(=C=C/C(C)=C/C=C/C(C)=C/C=C/C=C(C)/C=C/C=C(\C)C(=O)C[C@@]23O[C@]2(C)C[C@@H](O)CC3(C)C)[C@](C)(O)C1,?,3.4%,-27.1%,0.1%,1.3,-15.6,12.5
CCOC(=O)c1cc2n(c1N)-c1ccccc1C2=O,-8.5,?,8.91µM*,0.6%,15.8,5.8,?
CN(CC(=O)Nc1ccccc1Cl)C(=O)c1cccc(S(=O)(=O)N2CCN(Cc3ccccc3)CC2)c1,21.6,-1.1%,.,-3.3%,2.9,5.7,.
COc1ccccc1N1CCN(c2ncnc3c2nnn3C)CC1,.,0.0%,.,0.6%,0.0,-4.7,.
Cc1ccc(S(=O)(=O)N[C@@H](CC(C)C)C(=O)N2CCC(C(=O)N[C@H](C(=O)O)C(C)C)CC2)cc1,2.9,0.6%,11.2%,2.6%,.,.,-4.2
CCC(Sc1nc2ccsc2c(=O)n1Cc1ccc(C(=O)O)cc1)C(=O)Nc1ccc(Cl)cc1 (configuration not stated),.,3.8%,.,0.1%,-1.0,3.3,.
